# Compound activity (PubChem)
# VDR inhibitor: blocks the human vitamin D receptor | P11473 | VDR-SRC2-3 peptide fluorescence polarization, 2 h | Potency, µM, inactives show max response, negative = inhibition, actives largely listed as inhibitors | 400,000 compounds, 0.93% hits | AID 504847; active means well fitted inhibition curve with a large enough effect; inconclusive means small, poorly fitted or top-dose-only effect, or another doubt; inactive means no such curve, though single readings can be large or run the other way; further: series mostly up to about 120 µM
# Target sequence (P11473 whole entry, looked up): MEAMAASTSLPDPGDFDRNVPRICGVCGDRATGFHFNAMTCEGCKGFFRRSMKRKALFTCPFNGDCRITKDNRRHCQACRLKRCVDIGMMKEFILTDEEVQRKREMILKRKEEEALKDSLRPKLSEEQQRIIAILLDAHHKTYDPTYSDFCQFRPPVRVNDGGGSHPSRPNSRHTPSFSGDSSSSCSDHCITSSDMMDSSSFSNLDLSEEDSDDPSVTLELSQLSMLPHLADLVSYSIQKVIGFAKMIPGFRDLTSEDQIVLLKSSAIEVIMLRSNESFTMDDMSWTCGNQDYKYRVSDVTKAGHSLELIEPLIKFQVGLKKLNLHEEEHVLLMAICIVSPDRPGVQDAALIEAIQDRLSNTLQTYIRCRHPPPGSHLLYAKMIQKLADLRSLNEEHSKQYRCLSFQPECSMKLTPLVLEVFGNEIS
#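 Inhibition of the VDR/SRC2-3 peptide interaction is quantified by fluorescence polarization. Compounds (23 nl, pintool) incubate with the reagents for 2 hours at ambient room temperature.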
# Active calls of the source: *; ? = inconclusive; & = joins results of further samples. On the % scale 0 is the no-effect control and ±100 the full control effect; potency means the concentration at half of the fitted maximal effect. These rows are one share of the data (hit frequency here may not be typical).
SMILES,VDR inhibitor
Cc1cccc(NS(=O)(=O)c2cccc(C(=O)NNC(=O)c3ccccc3O)c2)c1,12%
COc1cc(/C=N/NC(=O)COc2ccc(-n3cnnn3)cc2)ccc1OCC(N)=O,-20%
CCc1cc2c(=O)n(-c3ccccc3)c(SCC(N)=O)nc2s1,-26%
COc1cccc(C(=O)NCC(c2ccc(N(C)C)cc2)N2CCCC2)c1OC (centres undefined),0%
CCOC(=O)c1c(C)oc2nc(C)nc(NCc3ccc(Cl)cc3)c12,18%
Cc1cc(F)ccc1NC(=O)C1CCCO1 (centres undefined),-6%
N#Cc1cc(NC2CCCC2)c([N+](=O)[O-])cc1C#N,-19%
CC1CCCCC1NC(=O)COC(=O)c1c2c(nc3ccccc13)/C(=C\c1ccco1)CC2 (centres undefined),1%
COc1ccc(C(=O)COC(=O)c2cccnc2SC)cc1,-11%
CC1(C)Oc2ccc(C(=O)N/N=C/c3ccc(O)cc3)cc2NC1=O,6%
Cc1ccc(C(=O)O/N=C/c2ccc(N(C)C)cc2)cc1,4%
CC(C)N(Cc1ccccc1)S(=O)(=O)c1cccs1,5%

# An excerpt of these results, with bars between the fields.
structure | VDR inhibitor
Cc1cc(F)ccc1NC(=O)C1CCCO1 (centres undefined) | -6%
N#Cc1cc(NC2CCCC2)c([N+](=O)[O-])cc1C#N | -19%
CC1CCCCC1NC(=O)COC(=O)c1c2c(nc3ccccc13)/C(=C\c1ccco1)CC2 (centres undefined) | 1%

# Additional structures
SMILES,VDR inhibitor
Cc1oc(-c2ccc(Cl)cc2)cc1C(=O)NC1CCN(Cc2ccccc2)CC1,-14%
Cc1ccc(C(=O)Nc2nc(-c3cc(Cl)sc3Cl)cs2)cc1,-6%
CSc1cc(-c2ccncc2)nc(-c2ccc(Cl)cc2)c1,11%
O=C(Nc1ccc2nn(-c3ccc(Cl)cc3)nc2c1)c1cc2ccccc2o1,-7%
Cc1ccc(S(=O)(=O)/N=C(/Nc2ccc(O)c(C(=O)O)c2)c2ccccc2)cc1,8%
C/C(=N\NC(=O)CC#N)c1ccc(Oc2ccccc2)cc1,0%
O=C(CN1C(=O)CCSc2ccc(S(=O)(=O)N3CCOCC3)cc21)Nc1ccccc1Cl,11%
COCc1cc(/C=N\NC(=O)Cc2ccc(Cl)cc2)ccc1OC,?
O=C(CCS(=O)(=O)c1ccccc1)N1CCN(c2ccc(F)cc2)CC1,-10%
O=C1N[C@@H](Cc2ccccc2)C(=O)N2[C@@H]1C[C@@]1(Br)c3ccccc3N(S(=O)(=O)c3ccccc3)[C@@H]21,-22%
COC(=O)c1cc(S(=O)(=O)NCC2CCN(Cc3ccc(C)cc3)CC2)cn1C,6%&-1%
Cc1ccc(CN2CCN(Cc3ccc(O)cc3)CC2CCO)o1 (centres undefined),-20%
C/C(=N\NC(=O)CN(c1ccccc1)S(C)(=O)=O)c1ccccc1O,11%
CN(C1CCCCC1)S(=O)(=O)c1ccc(-n2cnnn2)cc1,-11%
FCCCOc1ccc(-c2ccnc(-c3ccccc3)n2)cc1,5%
C=CCOc1nc(N(C)C)nc(N(C)C)n1,?
CCOC(=O)[C@@H]1[C@H]2COc3cc(OC)ccc3[C@H]2N2C(=O)N(c3ccc(Br)cc3)C(=O)[C@]12C,6%
O=C(N/N=C1\CCCc2ccccc21)c1ccccc1Cl,-9%
CN1C(=O)[C@H]2[C@@H](/C=C/c3ccccc3)N3C(=O)CN(Cc4ccccn4)C(=O)[C@@]3(Cc3ccccc3)[C@H]2C1=O,-4%
COc1cccc(/C=N/N2CCN(c3ccccc3OC)CC2)c1,4%
CCn1c(SCC(=O)N2CCCCCC2)nc2c(c1=O)SCC2,5%
CCC1CCCCN1C(=O)CCCc1ccccc1 (centres undefined),-3%
CCC1CN(C(=O)NCc2ccccc2)c2cc(C)ccc2O1 (centres undefined),-14%&21%
CCC(=O)c1ccc2c(c1)N(CCCN1CCN(CCO)CC1)c1ccccc1S2,?

# Shown with values ahead of the structure: entries from further up.
VDR inhibitor | smiles
8% | Cc1ccc(S(=O)(=O)/N=C(/Nc2ccc(O)c(C(=O)O)c2)c2ccccc2)cc1
-14%&21% | CCC1CN(C(=O)NCc2ccccc2)c2cc(C)ccc2O1 (centres undefined)
12% | Cc1cccc(NS(=O)(=O)c2cccc(C(=O)NNC(=O)c3ccccc3O)c2)c1
-4% | CN1C(=O)[C@H]2[C@@H](/C=C/c3ccccc3)N3C(=O)CN(Cc4ccccn4)C(=O)[C@@]3(Cc3ccccc3)[C@H]2C1=O
-6% | Cc1ccc(C(=O)Nc2nc(-c3cc(Cl)sc3Cl)cs2)cc1

# Further structures
SMILES,VDR inhibitor
COc1cccc(C(=O)Cn2c(Br)nc3c2c(=O)n(C)c(=O)n3C)c1,-9%
Cc1ccc2c(c1)c(CC(=O)Nc1ccc(C)c(F)c1)c(C(=O)O)n2C,-16%&7%
Cc1cc(C)nc(NC(=O)c2cnc3sccn3c2=O)n1,-4%
CC(=O)Cn1cnc2c(cnn2-c2ccc(C)c(C)c2)c1=O,1%
CS(=O)(=O)c1cccc(S(=O)(=O)N2CCCCCC2)c1,-8%
O=C(NN1C(=O)C2C3c4ccccc4C(c4ccccc43)C2C1=O)c1ccc(Cl)cc1 (centres undefined),-18%
C=CCSC1=NC(=O)/C(=C/c2cccs2)S1,?
O=C(c1ccco1)N1CCc2ccccc21,1%
CCOC(=O)C1CCCN(S(=O)(=O)c2ccc(NC(C)=O)cc2)C1 (centres undefined),-10%
CCc1ccc(NC(=O)CCNS(=O)(=O)c2cccs2)cc1,0%
CCOC(=O)/C(C#N)=C/c1ccc(OCC(=O)Nc2ccc(C)c(C)c2)c(OC)c1,11%
COc1ccccc1OCCC(=O)O,5%
O=C(Nc1c2c(nc3ccccc13)CCCC2)c1ccccc1F,-8%
C[C@H](NC(=O)c1[nH]cnc1C(=O)Nc1nccs1)c1ccccc1,-1%
O=C(Nc1nnc(S(=O)(=O)N2CCCCC2)s1)c1ccc(F)cc1,7%
CC(NC(=O)c1cc(-c2ccncc2)nc2ccc(Cl)cc12)C1CCCO1 (centres undefined),-12%
O=C(Nc1nc2c(Cl)cccc2s1)c1ccc([N+](=O)[O-])o1,-26%
CCOC(=O)CN1C(=O)C(O)(CC(=O)c2ccc3c(c2)CCCC3)c2ccccc21 (centres undefined),14%
O=C(COC(=O)CC1Sc2ccccc2NC1=O)NCc1ccccc1 (centres undefined),-17%
COC(=O)c1ccccc1NC(=O)Cn1c(=O)n(CCC(=O)NCc2ccc3c(c2)OCO3)c(=O)c2ccccc21,-6%
COc1cc(C)c(C(=O)Oc2cc(C)c(C(=O)O)c(O)c2)c(O)c1,1%
Cc1ccc(OC2=NS(=O)(=O)c3ccccc32)cc1,19%
O=C(O)c1cc(-c2ccccc2)n(-c2ccc(Cl)cc2Cl)n1,-14%
C=CCC1(C(=O)NCCO)CCN(C(=O)OC(C)(C)C)CC1,-11%
COc1ccc(CNC(=O)c2ccc3c(c2)N=C(C)c2c(C)ccc(C)c2S3)cc1,-7%
Cc1ccccc1NC(=O)C1CC(=O)n2ncnc2N1 (centres undefined),-19%
FC(F)(F)c1nnc2ccc(N3CCCC3)nn12,9%
CC(=O)N1CCN(c2nc3cc4c(cc3nc2NS(=O)(=O)c2ccccc2)OCCO4)CC1,3%
Clc1ccc(-c2csc3ncnc(Cl)c23)cc1,3%
Cc1ccccc1NC(=O)CSc1nnc(-c2ccccn2)o1,7%
CC(=O)N1CCC2(CC1)OC(=O)C(C)=C2C(=O)Nc1cc(C)ccc1C,-7%
CCOC(=O)N1CCC(NC(=O)CC2C(=O)NCCN2Cc2ccc(C)cc2)CC1 (centres undefined),-13%
CN(C)c1ccc(C(=O)NCc2ccc3c(c2)CCN3C(=O)c2ccc(Cl)cc2)cc1,-12%
Cc1c(OCC(=O)NCc2ccncc2)ccc2c3c(c(=O)oc12)CCC3,-11%
COc1cc(CO)cc(Br)c1OCc1cccnc1,-9%
C/C(=C\C(=O)c1ccc(Cl)cc1)Nc1ccc(Br)cc1,1%
Cc1ccc(CC(=O)Nc2nccs2)cc1C,7%
CCOc1ccc(C(C)=O)cc1COC(=O)CNC(=O)C12CC3CC(CC(C3)C1)C2,13%
Cc1cc(C(=O)Nc2ccc3[nH]ccc3c2)no1,-8%
Cc1cc(Br)ccc1NC(=O)CCS(=O)(=O)c1cccc2nsnc12,-5%
CCn1cc(C(=O)NCCN(CC(C)C)CC(C)C)c(=O)c2cc(S(=O)(=O)N3CCOCC3)ccc21,-9%
O=C(CCNC(=O)c1ccc(Br)cc1)Nc1cccc(S(=O)(=O)N2CCCCC2)c1,-15%
Cc1ccc(O)c(C2=NOC(O)(C(F)(F)F)C2)c1 (centres undefined),-11%
Cc1ccc(F)cc1NC(=O)c1cccc2nccnc12,5%
O=C(NCc1ccco1)C1CCCN(c2ncnc3c2nc2n3CCCCC2)C1 (centres undefined),-3%
Cc1nonc1NC(=O)CSc1nc2ccccc2o1,-2%
CCC(C)N(CCNC(=O)CC1Oc2ccccc2NC1=O)C1CCCCC1 (centres undefined),-21%
Clc1ccc(-c2noc(/C=C/c3ccccc3)n2)cc1,?
O=C(NCCc1ccc(Cl)cc1)c1ccc2c(c1)N(Cc1ccccc1)C(=O)CS2,-6%
O=C(NN(c1ccccc1)c1ccccc1)c1ccccc1F,1%
COc1ccc(-c2csc3ncn(-c4ccccc4OC)c(=O)c23)cc1OC,-2%
COCCNC(=S)N/N=C1\CC(C)CC(C)(C)C1 (centres undefined),?
COc1nnc(-c2ccccc2)s1,-3%
CSCCC(N=C(NS(=O)(=O)c1ccccc1)c1ccccc1)C(=O)O (centres undefined),4%
CCCNC(=O)c1cc(-c2ccc3c(c2)OCO3)on1,3%
Cc1ccc(C)c(NC(=O)CCN2CCN(c3ccccc3F)CC2)c1,-9%
CCOc1ccc(NC(=O)CN2CCc3cc4c(cc3C2)OCCCO4)cc1OCC,-25%
CN1CCN(S(=O)(=O)c2cccc(C(=O)Nc3sc4c(c3-c3nc5ccccc5[nH]3)CCCC4)c2)CC1,-7%
COc1cc(NC(=S)N2CCC(C(N)=O)CC2)c(OC)cc1Cl,-20%
O=C(O)c1ccc(NC(=O)c2cccc(C(=O)Nc3ccc(C(=O)O)cc3)c2)cc1,-2%

# Single values from the list:
# COc1ccc(-c2csc3ncn(-c4ccccc4OC)c(=O)c23)cc1OC in VDR inhibitor: -2%
# CSCCC(N=C(NS(=O)(=O)c1ccccc1)c1ccccc1)C(=O)O (centres undefined) in VDR inhibitor: 4%
# O=C(NN(c1ccccc1)c1ccccc1)c1ccccc1F in VDR inhibitor: 1%
# COc1cc(NC(=S)N2CCC(C(N)=O)CC2)c(OC)cc1Cl in VDR inhibitor: -20%
# CCCNC(=O)c1cc(-c2ccc3c(c2)OCO3)on1 in VDR inhibitor: 3%
# COc1nnc(-c2ccccc2)s1 in VDR inhibitor: -3%
# CCOc1ccc(NC(=O)CN2CCc3cc4c(cc3C2)OCCCO4)cc1OCC in VDR inhibitor: -25%

# New compounds follow
SMILES,VDR inhibitor
Cc1ccc(C(=O)CC(C(=O)O)n2ccc(C)n2)cc1 (centres undefined),5%
COc1ccc(C)cc1NS(=O)(=O)c1ccc2c(c1)CCN2C(C)=O,23%
Cc1nn(-c2ccccc2)c(N2CCCC2)c1/C=N/NC(=S)Nc1ccc(F)cc1,-10%
Cc1ccc(Cl)cc1NC(=O)C1CCCN(c2cnccn2)C1 (centres undefined),7%&15%
COc1ccc(S(=O)(=O)Nc2ccccc2C)cc1,1%
O=C(Nc1ccc(Cl)c(Cl)c1)Nc1cc(S(=O)(=O)N2CCOCC2)ccc1N1CCCC1,-11%
Cc1ccc(NCCCCO)cc1C,-8%
COc1ccc(C2CCCN2C(=S)Nc2c(C)cccc2C)cc1OC (centres undefined),17%
CCc1cc(Br)ccc1NC(=O)C1CCCO1 (centres undefined),-1%
CC1CCCCN1C(=O)CCS(=O)(=O)c1cccc2nonc12 (centres undefined),-11%
COc1cc(/C=C/C(=O)Oc2coc(CSc3ncccn3)cc2=O)cc(OC)c1OC,-18%
Cc1ccc(C)c(C(C)NC(=O)C2CC=CCC2C(=O)O)c1 (centres undefined),-22%
O=S1(=O)CCC(NC(=S)N2CCOCC2)C1 (centres undefined),-21%
CCCCCCCN1C2=NCCN2c2ccccc21,10%
CN(C)S(=O)(=O)c1cccc(C(=O)NC2CCSc3ccccc32)c1 (centres undefined),3%
C/C(=N\NC(=O)Cc1ccc(F)cc1)c1ccc(F)cc1,-8%
CCOC(=O)c1ccc(S(=O)(=O)NC2CC2)cc1,-13%
O=C(CN1C(=O)/C(=C\c2cccc(Cl)c2)Sc2ccccc21)NCCCN1CCOCC1,-12%
O=C(O)c1ccc(-n2c(/C=C\c3ccc(O)cc3)nc3ccccc3c2=O)cc1,-1%
CCOC(=O)Cc1ccc(NC(=O)N2CCC(CN3CCC(C)CC3)CC2)cc1,9%
CCOC(=O)c1cc2c(c(CCO)n1)[C@H](CCO)N(S(=O)C(C)(C)C)C2 (some centres undefined),-7%
COc1cc(OC)cc(C(=O)N2CCN(S(=O)(=O)c3ccc(Cl)s3)CC2)c1,-9%
O=C(NCCc1ccccc1)c1ccc2c(c1)N(Cc1c(F)cccc1Cl)C(=O)CS2,2%
O=C(CN1CCN(S(=O)(=O)c2cccc(Br)c2)CC1)N1CCCCC1,-18%
CC(C)[C@@H](CC(=O)N[C@@H]1CCNC[C@H]1C(=O)N[C@H](CC(=O)N[C@@H](CCC(=O)O)CC(=O)O)Cc1c[nH]c2ccccc12)NC(=O)C[C@H](Cc1c[nH]c2ccccc12)NC(=O)[C@@H]1CCCC[C@H]1N,6%
N=C(N)SCc1cn2ccccc2n1,-10%
CCOC(=O)Cc1csc(NC(=S)NC(=O)c2cc(OC)cc(OC)c2)n1,-25%
NC(=O)c1ccccc1NC(=O)CN1CCOCC1,12%
CSc1nsc(N/N=C/c2ccc3c(c2)OCO3)c1C#N,-1%
CCn1c(=O)c(C(=O)NCCCc2ccccc2)c(O)c2ccccc21,-9%
